rRNA inh HTS: inhibitors of bacterial rRNA selective over humanized ribosomes. E. coli WT GFP vs humanized-ribosome RFP mutants, fluorescence, 24 h; hits give low values; DMSO median 0, no signal -100. actives 1.6% (n = 350,000). AID 720706. GFP signal change (wild-type ribosome), % (concentration not given with the values);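 active = significant combined selectivity score with lowered wild-type GFP, culture density cut under 30%, mutant RFP and density less affected; inactive = any of these conditions unmet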; also: one replicate is shown; some compounds called inactive have numbers as strong as hits
HNF4A DNA FP: change in binding of human HNF4 alpha to DNA; activity change, % at 10 µM; HNF4a-FITC DNA binding, fluorescence polarization, 1 h; P41235; actives 0.3% (n = 360,000); AID 1224865; in the data active = activity change above about 30%, passing the limit was not always enough;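 also: controls were the assay level and a saturating level of protein; the project sought stronger binding though the title names inhibitors; some compounds called inactive have numbers as strong as hits; positive values seem to mean higher polarization but the record does not say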
AF4-AF9 inh: blocks AF4 peptide binding to human AF9 | P42568 | AlphaScreen, biotin-AF4 peptide binding to FLAG-AF9 | inhibition, % at 10 µM | actives 0.47% (n = 350,000) | AID 651704;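 active = every replicate reaching a set inhibition limit, whatever the replicate mean, cut at about 25% in these data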;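 also: 0% = plate neutral control median and 100% = total signal loss; the record names both 10 and 1 µM as test concentration; the first replicate is given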
Target sequence (P42568 whole entry, looked up): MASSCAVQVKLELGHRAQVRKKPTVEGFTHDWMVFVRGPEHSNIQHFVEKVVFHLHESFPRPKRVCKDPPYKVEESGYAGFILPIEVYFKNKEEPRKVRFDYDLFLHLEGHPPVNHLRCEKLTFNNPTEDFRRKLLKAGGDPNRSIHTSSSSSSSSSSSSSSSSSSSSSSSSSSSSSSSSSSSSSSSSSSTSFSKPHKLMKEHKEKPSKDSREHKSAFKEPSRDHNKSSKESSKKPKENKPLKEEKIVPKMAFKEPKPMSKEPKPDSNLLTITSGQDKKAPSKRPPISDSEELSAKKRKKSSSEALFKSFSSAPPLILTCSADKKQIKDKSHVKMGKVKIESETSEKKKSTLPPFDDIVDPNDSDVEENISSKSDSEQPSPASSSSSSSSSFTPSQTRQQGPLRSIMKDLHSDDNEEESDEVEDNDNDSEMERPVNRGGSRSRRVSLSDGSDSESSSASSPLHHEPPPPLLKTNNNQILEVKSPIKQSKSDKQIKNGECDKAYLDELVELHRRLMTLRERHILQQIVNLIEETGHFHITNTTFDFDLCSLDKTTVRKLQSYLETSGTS
FGF22 binding: FGF22 (human) thermal shift binding | Q9HCT0 | recombinant FGF22 thermal shift, SYPRO orange fluorescence; percent of sucrose octasulfate shift, DMSO zero | actives 1.5% (n = 340,000) | calls only at 9.99 µM;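 active = melting point raised past a set limit in the mean and every replicate; three in four hits are not shown here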
Target sequence (Q9HCT0 whole entry, looked up): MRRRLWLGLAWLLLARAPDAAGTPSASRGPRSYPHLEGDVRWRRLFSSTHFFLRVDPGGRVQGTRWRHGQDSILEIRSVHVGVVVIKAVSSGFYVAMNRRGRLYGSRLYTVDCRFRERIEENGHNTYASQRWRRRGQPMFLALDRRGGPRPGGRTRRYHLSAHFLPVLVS
Ecoli growth: blocks Escherichia coli growth. OD600 absorbance (no concentration beside the values). actives 0.21% (n = 330,000). AID 1053175. OD600, 23 h; hits give low values;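 active = OD600 absorbance below the run mean of sample wells minus 3.6 SD, in any replicate, cut at about 0.56 in these data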;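 also: stock transfer was 300 nL into about 60 µL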
ALR inh: human ALR oxidase inhibition via reduced H2O2. P55789. purified ALR, DTT oxidation, H2O2 HRP-luminol luminescence. inhibition, % (test concentration not listed). actives 3.8% (n = 290,000). AID 485317;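 active = mean and each replicate at 75% or more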;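 also: stock transfer was 7.5 nL into about 7.5 µL; 0% = neutral wells and 100% = wells with inactivated enzyme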
Target sequence (P55789 whole entry, looked up): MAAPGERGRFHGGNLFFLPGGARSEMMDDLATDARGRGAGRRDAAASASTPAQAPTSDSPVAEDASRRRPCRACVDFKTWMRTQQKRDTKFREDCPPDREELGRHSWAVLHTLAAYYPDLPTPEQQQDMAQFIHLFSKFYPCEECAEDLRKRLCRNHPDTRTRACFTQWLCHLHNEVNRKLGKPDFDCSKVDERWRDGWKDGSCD
Vif TR-FRET: HIV-1 Vif–A3G interaction blockers – biochemical, TR-FRET, GST-Vif 1-94, biotin-A3G peptide, dose response retest, primary screen (AID 1117319) | TR-FRET GST-Vif / biotin-A3G peptide binding; higher % means a stronger effect; test concentration not given here; strong numbers were not always called active | actives 0.57% (n = 260,000) | inhibition, %; hits with a dose series show IC50 in µM;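 active = above the screen mean plus three standard deviations and confirmed in dose response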;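 also: Vif residues 1-94 fused to GST binding biotinylated APOBEC3G peptide 110-148; 0% = full assay without inhibitor and 100% = GST in place of GST-Vif; retest series ran down from 100 µM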
rRNA inh HTS OD600: further read-out of rRNA inh HTS, marked with its call; OD600 change, %; measured here: OD600 growth;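 optical density of the mix in the first replicate; 0 = DMSO median and -100 = no signal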
rRNA inh HTS RFP: further read-out of rRNA inh HTS, marked with its call; RFP signal change, %; measured here: RFP humanized mutant strains;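 first replicate; 0 = DMSO median and -100 = no signal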
Numbers without * were called inactive; i = inactive; . = no result given; & = joins results of further samples.

# | rRNA inh HTS | rRNA inh HTS OD600 | rRNA inh HTS RFP | HNF4A DNA FP | AF4-AF9 inh | FGF22 binding | Ecoli growth | ALR inh | Vif TR-FRET | Structure
1 | 1 | 0 | 0.5 | . | -1.7 | i | . | . | . | Cc1noc(C)c1NC(=O)N(C)C[C@@H]1Oc2c(NC(=O)C3CCCCC3)cccc2C(=O)N([C@@H](C)CO)C[C@@H]1C
2 | -2 | 8 | 0.5 | . | -0.3 | i | . | . | . | C[C@H]1CN([C@@H](C)CO)C(=O)Cc2cc(NC(=O)Nc3cccc4ccccc34)ccc2O[C@@H]1CN(C)C(=O)Nc1cccc2ccccc12
3 | . | . | . | -4.2 | . | . | 0.71 | . | 19% | COc1ccc(Cl)cc1-n1c(=S)sc2c(=O)[nH]c(SCC(=O)NCC3CCCO3)nc21 (stereo not drawn)
4 | 2 | -8 | 3.6 | -0.6 | 0.5 | i | 0.72 | -1 | 4% | CCOC(=O)COc1c(OC)cc(Cl)cc1C1Nc2ccccc2C(=O)N1c1ccccc1 (stereo not drawn)
5 | . | . | . | 1.7 | . | . | 0.69 | 70 | 3% | Cc1ccc(CCNc2ccccc2C)cn1
6 | 9 | -1 | -2.3 | 0.6 | -22 | i | 0.69 | -13 | . | O=C(CSc1ncccn1)N1CCN(S(=O)(=O)c2ccccc2)CC1
7 | -1 | -10 | 3.7 | . | 0.5 | i | . | . | . | C[C@@H]1CN([C@@H](C)CO)C(=O)c2cc(C#Cc3ccc(F)cc3)cnc2O[C@H]1CN(C)C(=O)Nc1ccc(F)cc1
8 | 8 | 5 | 1.9 | 0.2 | 0.7 | i | 0.69 | -3 | 11% | COc1ccc(NC(=O)COC(=O)CCc2cc(OC)c(OC)c(OC)c2)c([N+](=O)[O-])c1
9 | 4 | 8 | 2.5 | -0.1 | -0.8 | i | 0.72 | -9 | 4% | Cc1[nH]c2ccccc2c1C(=O)CN1C(=O)C(=O)N(Cc2ccco2)C1=O
10 | -6 | -20 | -4.3 | 0.8 | -1.5 | i | 0.69 | -13 | 22% | Cc1ccc(C(=O)Nc2ccccc2-c2ccccc2)cc1[N+](=O)[O-]
11 | 20 | 20 | 1.4 | 3.0 | 2.0 | i | 0.67 | 0 | . | CCN1CCN(CCC(=O)Nc2cc(OC)cc(OC)c2)CC1
12 | 10 | 18 | 0.8 | 4.9 | -4.5 | i | 0.65 | -18 | . | COc1cccc(NC(=S)N2CCN(S(C)(=O)=O)CC2)c1
13 | 7 | 13 | -1.1 | -1.9 | -1.4 | i | . | . | . | C[n+]1cccc(NC(=O)c2ccccc2)c1
14 | 22 | 8 | 10 | 0.5 | -2.2 | i | 0.65 | 0 | -3% | COCCNC(=O)C12CC3CC(CC(Cl)(C3)C1)C2
15 | -24 | -27 | -6.3 | 2.3 | 0.3 | i | 0.67 | -1 | -3% | CCCc1nc2ccccc2c(C(=O)OCC(=O)NCc2ccc3c(c2)OCO3)c1CC
16 | 3 | 3 | -5.1 | 2.5 | 0.7 | i | 0.67 | . | 0% | CC(=O)NS(=O)(=O)c1ccc(NS(=O)(=O)c2ccc3ccccc3c2)cc1
17 | 5 | 10 | 0.1 | . | -4.9 | i | . | . | . | COc1ccc(NC(=O)N(C)C[C@@H]2Oc3ncc(C#CC(C)(C)O)cc3C(=O)N([C@H](C)CO)C[C@@H]2C)cc1
18 | -9 | -12 | 3.5 | 0.6 | -0.5 | . | 0.69 | -3 | . | Cc1ccc(S(=O)(=O)N2CCCC2CNC(=O)c2ccc(F)c(F)c2)cc1 (stereo not drawn)
19 | -8 | -39 | 17 | . | 0.3 | i | . | . | . | CC(C)NC(=O)N(C)C[C@@H]1Oc2cc(C#Cc3ccc(F)cc3)ccc2S(=O)(=O)N([C@H](C)CO)C[C@@H]1C
20 | . | . | . | 0.2 | . | . | 0.71 | 3 | 11% | c1ccc(CNC2=NCCCC2)cc1
21 | 0 | 1 | -4.4 | 1.7 | 1.7 | i | 0.65 | -2 | >100µM* | COc1ccc(CN2C(=O)c3ccccc3C2C(=O)NCc2cccnc2)c(OC)c1 (stereo not drawn)
22 | -1 | 2 | 0.3 | . | 0.7 | i | . | . | . | CO[C@@H]1CN(C)C(=O)c2ccc(NC(=O)C3CCC3)cc2OC[C@H](C)N(Cc2ccccn2)C[C@H]1C
23 | 5 | 3 | -3.6 | -0.7 | -0.7 | i | 0.7 | . | . | COc1ccc(C(=O)NC2CC2)cc1OC1CCN(Cc2ccc(NC(C)=O)cc2)CC1
24 | 6 | 1 | 2.1 | 0.2 | -38 | i | 0.68 | -15 | -9% | CCOC(=O)c1sc(NC(=O)CC)c(C#N)c1C
25 | . | . | . | -2.2 | . | . | 0.73 | 97* | 4% | Cn1c(=S)[nH]c2cccnc21
26 | -2 | -8 | -1.5 | 2.8 | -0.1 | i | 0.67 | -4 | 4% | COc1ccc(CCNC(=O)COc2ccc(S(=O)(=O)NC(C)C)cc2)cc1OC
27 | . | . | . | 0.2 | . | . | 0.73 | 24 | 5% | CCCc1cc2c(cc1NS(=O)(=O)c1ccc(CCNC(C)=O)cc1)OCO2
28 | 2 | -3 | 0.5 | . | -0.1 | i | . | . | . | Cc1noc(C)c1S(=O)(=O)Nc1ccc2c(c1)C(=O)N([C@H](C)CO)C[C@H](C)[C@@H](CN(C)Cc1ccccc1)OCCCC[C@H](C)O2
29 | . | . | . | -3.1 | -0.3 | i | 0.65 | . | -8% | CC(C)n1cc2c(N)ncnc2n1
30 | 5 | 9 | -0.8 | -2.0 | -10 | i | 0.68 | -6 | . | COc1cc(NS(=O)(=O)c2ccc3[nH]c(=O)[nH]c3c2)cc(OC)c1
31 | -10 | -3 | 2.7 | -0.4 | 14 | i | 0.68 | -2 | . | Cc1ccc(C)c(OCCNc2ncccc2[N+](=O)[O-])c1
32 | -7 | 6 | -1.4 | 4.8 | -5.6 | i | 0.65 | 0 | 5% | O=C(COC(=O)c1ccco1)Nc1ccc([N+](=O)[O-])cc1Cl
33 | -47 | -68 | -20 | 4.0 | 4.1 | i | 0.69 | -9 | . | O=S(=O)(c1ccc2nc(SCc3ccc(Cl)cc3)[nH]c2c1)N1CCOCC1
34 | -2 | 8 | -3.4 | -3.1 | -8.7 | i | 0.67 | . | . | Cc1ccc(NC(=O)c2ccc3c(c2)OCCO3)nc1
35 | -3 | -1 | -1.4 | -0.9 | -5.4 | i | 0.69 | -1 | 0% | NC(=O)COC(=O)CC(c1ccccc1)c1ccccc1
36 | 2&13 | -3&5 | -0.6&-4.0 | 2.8 | 2.1&-6.5 | i | 0.72 | . | 1% | CC(C)NC(=O)Nc1ccc2c(c1)C(=O)N([C@H](C)CO)C[C@H](C)[C@@H](CN(C)C(=O)Nc1ccc3c(c1)OCO3)O2
37 | 6 | -2 | 3.8 | -1.2 | -1.8 | i | 0.66 | . | 2% | Cc1ccc(C(=O)NCCCN2CCOCC2)c(C)c1
38 | . | . | . | -0.6 | . | . | 0.62 | 98* | 23% | CSc1nccn1CC(=O)Nc1ccc(F)cc1
39 | -46 | -70 | -17 | . | 2.0 | i | 0.68 | -7 | -1% | CC(C)Cn1c(-c2ccco2)nc2c(c(=O)c3ccccc3n2C)c1=O
40 | . | . | . | 4.7 | . | . | 0.68 | . | 69% | O=C(CN1C(=O)C2CC=CCC2C1=O)OCCN1C(=O)c2ccccc2C1=O (stereo not drawn)
41 | 6 | 1 | 0.0 | 1.7 | 1.8 | i | . | -1 | . | Cc1ccc(OC[C@H](O)[C@H](C)NC(C)C)c2c1CCC2
42 | . | . | . | -4.5 | . | . | 0.71 | -3 | 1% | O=C(Nc1ccc(Cl)cc1C(=O)NCC1CCCO1)c1ccco1 (stereo not drawn)
43 | . | . | . | 1.5 | . | . | 0.67 | 6 | -7% | O=CN1CCC(=O)N(Cc2ccccc2)c2ccccc21
44 | 14 | 8 | -1.0 | -1.9 | -14 | i | . | -2 | . | CC(=O)O[C@H]1CC[C@@]2(C)[C@@H](CC[C@@H]3[C@@H]2CC[C@]2(C)[C@@H](C(C)(C)O)C[C@@H]32)C1
45 | 2 | -1 | 2.1 | 2.1 | -2.4 | i | 0.67 | -10 | . | COc1ccc(CC2(CO)CCN(S(=O)(=O)c3c(C)nn(C)c3Cl)CC2)cc1
46 | . | . | . | 2.5 | . | . | 0.76 | -6 | 2% | COc1ccc(N2CCN(Cc3cc(=O)oc4cc5c(cc34)CCCC5)CC2)cc1
47 | 1 | -2 | -0.3 | . | -3.8 | i | . | . | . | C[C@H]1CN([C@@H](C)CO)C(=O)CCCn2nncc2CO[C@H]1CN(C)S(=O)(=O)c1ccccc1C#N

Part of the list above in order of SMILES length, descending.
# | rRNA inh HTS | rRNA inh HTS OD600 | rRNA inh HTS RFP | HNF4A DNA FP | AF4-AF9 inh | FGF22 binding | Ecoli growth | ALR inh | Vif TR-FRET | Structure
47 | 1 | -2 | -0.3 | . | -3.8 | i | . | . | . | C[C@H]1CN([C@@H](C)CO)C(=O)CCCn2nncc2CO[C@H]1CN(C)S(=O)(=O)c1ccccc1C#N
45 | 2 | -1 | 2.1 | 2.1 | -2.4 | i | 0.67 | -10 | . | COc1ccc(CC2(CO)CCN(S(=O)(=O)c3c(C)nn(C)c3Cl)CC2)cc1
46 | . | . | . | 2.5 | . | . | 0.76 | -6 | 2% | COc1ccc(N2CCN(Cc3cc(=O)oc4cc5c(cc34)CCCC5)CC2)cc1
40 | . | . | . | 4.7 | . | . | 0.68 | . | 69% | O=C(CN1C(=O)C2CC=CCC2C1=O)OCCN1C(=O)c2ccccc2C1=O (stereo not drawn)
39 | -46 | -70 | -17 | . | 2.0 | i | 0.68 | -7 | -1% | CC(C)Cn1c(-c2ccco2)nc2c(c(=O)c3ccccc3n2C)c1=O
37 | 6 | -2 | 3.8 | -1.2 | -1.8 | i | 0.66 | . | 2% | Cc1ccc(C(=O)NCCCN2CCOCC2)c(C)c1

Retrieved by structure from the list above (3):
# | rRNA inh HTS | rRNA inh HTS OD600 | rRNA inh HTS RFP | HNF4A DNA FP | AF4-AF9 inh | FGF22 binding | Ecoli growth | ALR inh | Vif TR-FRET | Structure
38 | . | . | . | -0.6 | . | . | 0.62 | 98* | 23% | CSc1nccn1CC(=O)Nc1ccc(F)cc1
37 | 6 | -2 | 3.8 | -1.2 | -1.8 | i | 0.66 | . | 2% | Cc1ccc(C(=O)NCCCN2CCOCC2)c(C)c1
41 | 6 | 1 | 0.0 | 1.7 | 1.8 | i | . | -1 | . | Cc1ccc(OC[C@H](O)[C@H](C)NC(C)C)c2c1CCC2

The list is partial; count on the stated rates, not on these rows.
